# ClpP mod – qHTS Assay for Activators of ClpP; Potency, µM (series often up to 57.5 µM), for the others: at the highest dose activity change, negative = active; purified B. subtilis ClpP, FRET peptide cleavage, 20 min; 1.9% of 340,000 active; ATP-dependent Clp protease proteolytic subunit (Bacillus subtilis (strain 168)), P80244; active = well fitted falling curve with a large enough effect; inconclusive = small, poorly fitted or top-dose-only effect; inactive = no such curve, though single readings can be large or run the other way; further: potency means the concentration at half of the fitted maximal effect; the source files actives as falling curves though it sought activators and does not explain the sign; nearly all actives have a fitted effect of over 65% in size; many hits overshoot -100%
# Target sequence (P80244 whole entry, looked up): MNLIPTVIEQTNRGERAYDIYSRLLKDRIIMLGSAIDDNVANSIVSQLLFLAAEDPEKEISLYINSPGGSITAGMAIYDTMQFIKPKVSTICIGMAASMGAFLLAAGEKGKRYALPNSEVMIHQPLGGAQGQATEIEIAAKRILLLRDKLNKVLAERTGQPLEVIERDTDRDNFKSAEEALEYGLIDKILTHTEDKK
#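 FRET quenching reversal measured ClpP activation: 10 microg/mL B. subtilis ClpP at pH 8 with the FRET-FV decapeptide, read at 430 nm after 320 nm excitation. The 20-min minus 0-min signal was scaled between DMSO/no-enzyme wells and ADEP (5.8 microM final).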
# Sfp PPTase inh – qHTS Assay for Inhibitors of Bacillus subtilis Sfp phosphopantetheinyl transferase (PPTase); 4'-phosphopantetheinyl transferase ffp (Bacillus subtilis), Q9F4F7; 3.5% of 310,000 active; Biochemical Sfp PPTase activity, qHTS; Potency, µM, for the others: max response, negative = inhibition, actives largely listed as inhibitors; AID 1490, 2009; active means well fitted inhibition curve with a large enough effect; inconclusive means small, poorly fitted or top-dose-only effect, or another doubt; inactive means no such curve, though single readings can be large or run the other way;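 further: the enzyme is Sfp with the accession as filed and its product quenches rhodamine fluorescence; potency means the concentration at half of the fitted maximal effect; 0% = enzyme reaction without inhibitor and -100% = no enzyme wells; top concentration of the series not given in the record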
#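 Step 1, compound plus 15 nM Sfp-PPTase, 15 min, room temperature. Step 2, add rhodamine-CoA (5 uM) and BHQ-2-YbbR (12.5 uM). Step 3, read 525/598 nm fluorescence at 0 and 30 min.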
# gsp ag – qHTS for Agonist of gsp, the Etiologic Mutation Responsible for Fibrous Dysplasia/McCune-Albright Syndrome: qHTS | gsp mutant cells, cAMP HTRF, 30 min; control for the full effect not named in the record | Potency, µM (doses to about 76.9 µM), inactives show at the highest dose activation (cAMP increase), most hits filed as activators | 0.13% of 340,000 active | AID 624287, 2012; active = well fitted activation curve with a large enough effect; inconclusive = small, poorly fitted or top-dose-only effect, or another doubt; inactive = no such curve, though single readings can be large or run the other way; cell line not stated here;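 further: phosphodiesterase inhibitor Ro 20-1724 added with compounds to block cAMP breakdown; potency means the concentration at half of the fitted maximal effect; nearly all actives have a fitted effect of over 60% in size; about a fifth of the inactives were tested at one dose only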
#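 Cells stably selected in G418 were plated at 2000/well, grown 16-24 hr, then given compounds in DMSO with the PDE inhibitor […] (300 uM solution added) for 30 min at 37C; cAMP was read by HTRF.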
# PINK1 expr mod – A Quantitative High throughput Screen to Identify Chemical Modulators of PINK1 Expression. PINK1 immunofluorescence, high-content cytometry, 24 h. Potency, µM (top dose mostly 76.6 µM), without a hit: top-dose activation (PINK1 increase), hits mostly activators. 0.2% of 410,000 active; active = well fitted activation curve with a large enough effect; inconclusive = small, poorly fitted or top-dose-only effect; inactive = flat fitted curve, though single readings scatter; cell line not stated here;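 further: potency means the concentration at half of the fitted maximal effect; % of control where 0% means no effect; nearly all actives have a fitted effect of over 65% in size; a mitochondrial uncoupler was the plate control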
#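 Stable cell line treated 24 h with compounds at 5 concentrations (CCCP controls), then fixed and immunostained for PINK1 plus nuclear and cell stains; PINK1 immunofluorescence quantified by laser-scanning microplate cytometry.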
# Menin MLL FP FL – qHTS Assay for Inhibitors Targeting the Menin-MLL Interaction in MLL Related Leukemias: Competition With Fluorescein Labeled MLL-derived Peptide. 290,000 tested, under 10 active. Fluorescence polarization, fluorescein-MLL peptide displacement from menin. FP activity change, % at 61.4 µM; inconclusive = falling polarisation curve, or a change in total fluorescence; inactive = total fluorescence flat and polarisation flat or rising; no compound was filed as active; the % refers to the polarisation; negative = inhibition;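 further: % of control where 0% means no effect; inhibitors lower the polarisation; unlabelled MLL peptide was the positive control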
# gsp antagonist – qHTS for Antagonists of gsp, the Etiologic Mutation Responsible for Fibrous Dysplasia/McCune-Albright Syndrome: qHTS; gsp-mutant cells, cAMP HTRF, 30 min; control for the full effect not named in the record; Potency, µM (titrated, usually from 76.9 µM), for the others: top-dose activity change, negative = inhibition, hits mostly inhibitors; 0.4% of 340,000 active; active = falling curve of any shape with a large fitted effect; inconclusive = falling curve, mostly with a smaller effect; inactive = flat or rising curve; cell line not stated here;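 further: intracellular cAMP measured with PDE inhibitor Ro 20-1724 present during compound exposure; potency means the concentration at half of the fitted maximal effect; on the % scale 0 is the no-effect control and ±100 the full control effect; nearly all actives have a fitted effect of over 65% in size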
#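 HTRF cAMP read-out (cAMP-d2 plus anti-cAMP antibody-K in lysis buffer, 30 min RT). Before lysis, cells are exposed to compounds with […] for 30 min at 37C in DPBS containing Ca/Mg, BSA and Tween 20.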
# D2 agonist – Beta-Arrestin HTS for Positive Allosteric Modulators of the Human D2 Dopamine Receptor: Agonists; D(2) dopamine receptor (Homo sapiens), P14416; DiscoveRx PathHunter D2 beta-arrestin, luminescence, 90 min; 100% = 57 uM dopamine signal; activation, % (no concentration beside the values); 0.084% of 360,000 active; AID 624465, 2012; in the data active = activation above about 40%; inconclusive = about 15% to 40%; inactive = below about 15%; further: compound concentration not given in the record; the text of the record calls up to 30% inactive
# Target sequence (P14416 whole entry, looked up): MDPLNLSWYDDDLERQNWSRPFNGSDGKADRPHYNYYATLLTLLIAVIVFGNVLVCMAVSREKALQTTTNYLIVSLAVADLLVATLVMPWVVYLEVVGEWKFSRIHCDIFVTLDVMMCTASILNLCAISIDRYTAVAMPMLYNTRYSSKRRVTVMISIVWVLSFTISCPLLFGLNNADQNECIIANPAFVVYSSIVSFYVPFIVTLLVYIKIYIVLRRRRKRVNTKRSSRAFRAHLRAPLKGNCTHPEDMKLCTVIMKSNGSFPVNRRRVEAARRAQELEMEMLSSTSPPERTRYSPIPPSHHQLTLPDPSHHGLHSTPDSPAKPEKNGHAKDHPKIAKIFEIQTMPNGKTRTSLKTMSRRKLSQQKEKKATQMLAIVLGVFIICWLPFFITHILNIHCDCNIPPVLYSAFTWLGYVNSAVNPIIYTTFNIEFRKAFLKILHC
#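 Agonist mode: compounds alone added to overnight-plated D2 PathHunter cells for 90 min at 37 C, with 57 uM final dopamine (EC100) defining full response. Beta-arrestin recruitment detected by chemiluminescent reagent, read after 1 h at ambient temperature.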
# The depositor's hits bear a star; u = inconclusive; x = no result given; & = joins results of further samples; [ ] = another dose, or the depositor's remark.
SMILES,ClpP mod,Sfp PPTase inh,gsp ag,PINK1 expr mod,Menin MLL FP FL,gsp antagonist,D2 agonist
COc1ccc(C(C)NC(=O)C2CCN(CCOc3ccc(Cl)cc3Cl)CC2)cc1OC (stereo not drawn),-0.5%,x,x,-0.7%,x,x,4.3
CC(C)[C@H](NC(=O)c1ccccc1)C(=O)NC1CCCCCCC1,-0.1%,x,u,4.6%,x,20%,-0.6
NCCC(=O)NC[C@H]1O[C@@H](n2cnc3c(N)ncnc32)[C@H](O)[C@@H]1O,-1.3%,x,x,-0.3%,x,6%,-0.7
COc1ccc2nc(NC(=O)Cc3cccs3)sc2c1,-2.3%,-18%,u,-1.2%,4.2,1%,1.0
Cc1[nH]c(C)c(S(=O)(=O)N2CCCCC2)c1C(=O)N1CCCCC1,0.0%,21%,-26%,0.3%,-1.5,8%,-0.1
C[C@]12CC[C@@H]3c4ccc(OS(=O)(=O)O)cc4CC[C@H]3[C@@H]1CCC2=O,0.4%&1.4%,15%,x,0.5%&-0.2%,2.8,4%&-2%,2.4&-4.2
O=C(O)C1CCCN1S(=O)(=O)c1ccc(Br)cc1 (stereo not drawn),-0.5%,1%,0%,0.5%,3.9,3%,-4.6
CCN(C1CCCCC1)S(=O)(=O)CCNC(=O)c1ccc2c(c1)OCO2,x,x,3%[15.4 µM],1.6%,x,7%,-1.8
N#Cc1cccc(-c2nccc(NCc3cccnc3)n2)c1,x,2%,x,-0.7%,0.1,x,x
O=C1CCCC(O)=C1N=Nc1ccc2c(c1)OCO2,x,7%,12%[15.4 µM],0.7%,27,-18%,-3.7
O=C(NCC1CCCN(Cc2ccc3nonc3c2)C1)c1cccc(C(F)(F)F)c1 (stereo not drawn),x,-8%,13%[15.4 µM],-0.2%,2.2,3%,2.6
CCC1CCCCN1C(=O)c1cccc(S(=O)(=O)Nc2cc(C(F)(F)F)ccc2Cl)c1 (stereo not drawn),3.4%,34%,-2%,u,2.0,-7%,0.0
O=C(COC(=O)CNC(=O)c1ccc(Cl)cc1Cl)Nc1cccc(S(=O)(=O)N2CCCC2)c1,2.8%,x,-38%[inhibitor],-1.2%,x,-16%,-2.0
COc1ccccc1Cc1c(-c2ccccc2)nc2ccc(Cl)cn12,4.2%,x,x,10%,x,x,-4.5
CC1(c2ccc(OC(F)F)cc2)NC(=O)N(CC(=O)NCCC2=CCCCC2)C1=O (stereo not drawn),0.5%,x,21%,-0.1%,x,0%,-12
COc1cc(NC(=S)NC(=O)c2ccccc2C)ccc1NC(=O)c1cccs1,-0.6%,4%,18%,4.7%,4.7,-13%,-8.4
Cc1ccc(S(=O)(=O)N(C)CCCC(=O)Nc2ccccn2)cc1,-2.6%,x,14%,-0.7%,x,-6%,-1.3
CCOC(=O)c1ccc(NC(=S)N(Cc2cccnc2)Cc2ccco2)cc1,x,0%,0%[15.4 µM],0.7%,0.8,-13%,8.3
CC12CCC(=O)N1C(C(=O)NNC(=O)c1cccc(Cl)c1)CS2 (stereo not drawn),0.6%,x,-11%[15.4 µM],-0.5%,x,5%,3.6
Cn1cc(S(=O)(=O)N2CCN(c3ccccc3)CC2)c(=O)n(C)c1=O,1.3%,25%,26%,3.1%,2.2,10%,-4.8
c1ccc(Cn2nnc3c(NCc4ccc5c(c4)OCO5)nc(C4CC4)nc32)cc1,-4.6%,-10%,-3%,-0.8%,-0.1,1%,-2.3
O=C(NNc1cccc(Cl)n1)Nc1ccccc1Cl,-2.2%,-7%,13%,5.1%,3.3,7%,-2.1
O=C(Cc1ccccc1)NCC(=O)N1CCC1,x,7%,-14%[15.4 µM],1.1%,-4.0,7%,-3.5
COc1ccccc1CC(=O)N1CCN(c2ccccc2)CC1,1.2%,4%,-33%[inhibitor],1.0%,-3.9,2%,-1.8
COc1ccc(Cl)cc1N1C(=O)C2CCCN2C1c1cccc(F)c1 (stereo not drawn),-1.0%,-8%,u,2.0%,-1.0,0%,-0.4
CN(C)C(=O)c1cc(C(=O)c2ccccc2F)c[nH]1,-3.3%,4%,-31%[inhibitor],1.2%,1.9,9%,-0.1
Clc1cccc(CSc2ncnc3c2ncn3C2CCCCO2)c1 (stereo not drawn),x,x,-1%,1.0%,x,0%,2.3
CC(=O)Nc1cccc(NC(=O)/C=C/c2ccc(S(=O)(=O)N3CCOCC3)cc2)c1,-2.8%,x,-18%[15.4 µM],-2.0%,x,-7%,0.0
CCCCNC(=S)NNC(=O)c1csc(CC)c1,-2.4%,18%,1%,-0.6%,4.9,-11%,-5.4
COc1ccc(-n2c(Cc3cccn3C)nnc2SCC(=O)Nc2nccs2)cc1,-0.6%,-15%,-46%[inhibitor],-1.9%,1.1,-15%,-1.7
O=S(=O)(CCN1CCN(c2ccccc2O)CC1)c1ccc(Cl)cc1,0.3%,x,-4%,-0.3%,x,x,-1.3
CC1(C(=O)NS(=O)(=O)c2ccccc2)CCN1C(=O)CCc1ccc(Cl)cc1Cl (stereo not drawn),-16%,x,x,0.4%,x,x,5.4
C=CCNCc1cccn1-c1ccccc1,-1.6%,-18%,30%,u,0.6,11%,1.6
Cc1ccc(N(Cc2cc3ccc(C)cc3[nH]c2=O)S(C)(=O)=O)c(C)c1,-21%,19%,u,0.0%,6.4,-29%,-6.8
CCOc1ccc(NC(=O)CN2CC(c3ccccc3)CC2=O)cc1 (stereo not drawn),-1.2%,7%,-2%,-2.9%,0.2,0%,-3.6
O=S(=O)(c1ccccc1Br)N(Cc1ccccc1)CC(O)COCc1ccccc1 (stereo not drawn),0.3%,x,x,u,x,-11%,-2.7
CC(=O)C1=C(O)C(=O)N(CCCn2ccnc2)C1c1ccc(C)cc1 (stereo not drawn),-1.9%,0%,-7%,x,1.6,5%,-1.5
O=C(CCCn1c(=S)[nH]c2ccc(Br)cc2c1=O)NCC1CCCO1 (stereo not drawn),2.1%,12%,2%,-1.9%,-0.3,-5%,-1.2
c1c2c(cc3sc(N4CCOCC4)nc13)OCCO2,-0.3%,18%,-40%[inhibitor],-4.0%,0.9,-4%,-0.9
Cc1ccc(Nc2cc(C)nc3ccccc23)c(C)c1,-1.1%,x,3%[15.4 µM],6.3%,x,5%,-4.4
CCc1nnc(NC(=O)CN2CCN(Cc3ccc(C)cc3)CC2)s1,-1.6%,4%,-26%,3.0%,-4.2,10%,-5.7
COc1ccc(NC(=O)Cn2nnc(C(=O)NCc3cccs3)c2N)cc1,-3.5%&-1.0%,-1%,-3%,6.7%&2.6%,-0.6,7%,-2.1
Cc1ccc(CNC(=O)CNS(=O)(=O)c2cccc3nsnc23)cc1,2.3%,5%,-25%,-0.5%,3.4,-1%,-5.0
C=CC[C@@H](Cc1ccc(F)cc1)C(=O)OC[C@H]1CCCN1C(=O)[C@H](CC=C)CC(=O)N[C@H](CO)Cc1ccccc1,-0.1%,x,x,0.6%,x,-10%,-0.5
CNC(=O)c1ccsc1NC(=O)c1ccc(S(=O)(=O)N2CCCc3ccccc32)cc1,-16%,12%,-25%,2.8%,4.8,u,-3.6
Cc1cccc(NC(=O)c2cccc3c2-c2ccccc2C3=O)n1,x,11%,-9%,13%,3.1,-1%,1.4
Cc1cc(NC(=O)c2ccco2)ncc1NC(=O)Cc1ccccc1,-1.5%,3%,18%,1.2%,2.0,15%,-0.3
N#C/C(=C\c1ccc(Cl)cc1)c1nc2ncccc2[nH]1,-1.6%,9%,-39%[inhibitor],16%,14,14%,4.2
CC(C)(C)c1ccc(-c2nnc(SCC(=O)NCC3CCCO3)n2N)cc1 (stereo not drawn),-6.3%,x,5%,-1.7%,x,-2%,1.2
O=C(COC(=O)/C=C/c1cccc(Cl)c1)NC(=O)NCc1ccccc1,0.8%,x,u,7.5%,x,8%,4.3
Cc1ccccc1OCC(=O)OCC(=O)NCc1ccc2c(c1)OCO2,x,x,23%,1.1%,x,4%,-0.4
COc1ccc(F)cc1S(=O)(=O)N1CCN(C(=O)c2ccco2)CC1,-3.9%,-3%,4%[15.4 µM],-1.9%,-4.4,7%,6.9
NC(=O)N/N=C/c1cn(-c2ccccc2)nc1-c1cccnc1,-7.6%,-9%,12%,3.7%,-0.3,2%,0.9
Cc1ccccc1-c1cc(C(=O)NCc2ccc(OC(F)(F)F)cc2)nn1CC1CC(c2cccc([N+](=O)[O-])c2)=NO1 (stereo not drawn),0.0%,x,x,0.9%,x,-5%,-0.1
Nc1c(NCCc2ccccc2)c2ccccc2oc1=O,4.7%,-7%,u,-0.1%,1.3,u,-1.5
O=C(CSCc1nc2c(nnn2Cc2ccc(F)cc2)c(=O)[nH]1)Nc1c(Cl)cc(Cl)cc1Cl,0.2%,-7%,1%[15.4 µM],0.1%,6.9,u,0.7
O=C(N=C1SC2CS(=O)(=O)CC2N1c1cccc(Cl)c1)C1CCCO1 (stereo not drawn),-0.8%,8%,-29%,0.4%,-0.7,13%,1.1
N#CCCN(CC(=O)O)S(=O)(=O)c1ccccc1,0.5%,12%,-3%,-2.1%,3.3,10%,-3.3
CCCCN(CC)CCNC(=O)CCC(=O)Nc1ccc2nc(N3CCN(C)CC3)cc(C)c2c1,3.7%,-9%,0%,0.2%,-1.0,-3%,-3.1
CCN(CC)S(=O)(=O)c1ccc(C(=O)OCC(=O)Nc2sc3c(c2C#N)CCCCC3)cc1,-1.8%,u,13%,-1.7%,x,1%,1.4

# Screening results as filed in PubChem BioAssay.

# Random draw from the library; about 5.1% have a hit in one of these screens.
